# Bioassay records: PubChem, National Center for Advancing Translational Sciences (NCATS)
# Marburg entry inh: blocks Marburg virus binding to or entry into cells | Marburg virus pseudotyped entry inhibition, cell reporter; control for the full effect not named in the record; about a third of the inactives were read at about 46 µM | Potency, µM (doses to about 37.8 µM), for the others: at the highest dose activity change, negative = inhibition, hits mostly inhibitors | actives 1.8% (n = 300,000) | AID 540276; active = well fitted inhibition curve with a large enough effect; inconclusive = small, poorly fitted or top-dose-only effect, or effect the other way; inactive = flat fitted curve, though single readings scatter; tested in HEK293 cells; about a fifth of its hits are not listed in these tables; note: % is set by controls: 0 for no effect and ±100 for the full control effect; luciferase read-out
# LASV entry inh: Lassa virus entry inhibition | Lassa virus pseudotype entry inhibition, cell reporter; control for the full effect not named in the record | Potency, µM (highest dose often 37.9 µM), inactives show at the top dose activity change, negative = inhibition, actives largely listed as inhibitors | actives 1.2% (n = 300,000); active means well fitted inhibition curve with a large enough effect; inconclusive means small, poorly fitted or top-dose-only effect, or effect the other way; inactive means flat fitted curve, though single readings scatter; tested in HEK293 cells; note: % is set by controls: 0 for no effect and ±100 for the full control effect; nearly all actives have a fitted effect of over 50% in size; luciferase read-out
# RE007 growth inh: less growth of the S. pombe RE007 Vpr strain | AID 651644 | S. pombe RE007 Vpr strain, BacTiter-Glo ATP luminescence, 24 h; control for the full effect not named in the record | actives 0.21% (n = 360,000) | Potency, µM (highest dose often 92.2 µM), for the others: top-dose activity change, negative = less growth; active = well fitted falling curve with a large enough effect; inconclusive = small, poorly fitted or top-dose-only effect; inactive = no such curve, though single readings can be large or run the other way;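 note: % is set by controls: 0 for no effect and ±100 for the full control effect; nearly all actives have a fitted effect of over 50% in size; the assay follows cell death caused by Vpr and the record does not say whether a fall means rescue or toxicity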
#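 Fission yeast RE007 carrying one integrated HIV-1 vpr copy, seeded at OD 0.01 in PMG+AL medium with 23 nL pinned compound. Grown 24 h at 30 degrees; viability read by BacTiter-Glo luminescence after 5 min.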
# Cruzain inh noDet: inhibitors of Trypanosoma cruzi cruzain without detergent; AID 1476; Potency, µM, without a hit: max response, negative = inhibition, most hits filed as inhibitors; purified cruzain, Z-FR-AMC fluorescence, no detergent; actives 2.3% (n = 200,000); active = well fitted curve in the direction sought with a large enough effect; inconclusive = small, poorly fitted or top-dose-only effect, or another doubt; inactive = no such curve, though single readings can be large; an effect the other way counts as inactive or inconclusive;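 note: plate controls were enzyme without inhibitor for no effect and buffer without enzyme for full effect; nearly all actives have a fitted effect of over 40% in size; top concentration of the series not given in the record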
# Target sequence (P25779 123-467 limits assumed): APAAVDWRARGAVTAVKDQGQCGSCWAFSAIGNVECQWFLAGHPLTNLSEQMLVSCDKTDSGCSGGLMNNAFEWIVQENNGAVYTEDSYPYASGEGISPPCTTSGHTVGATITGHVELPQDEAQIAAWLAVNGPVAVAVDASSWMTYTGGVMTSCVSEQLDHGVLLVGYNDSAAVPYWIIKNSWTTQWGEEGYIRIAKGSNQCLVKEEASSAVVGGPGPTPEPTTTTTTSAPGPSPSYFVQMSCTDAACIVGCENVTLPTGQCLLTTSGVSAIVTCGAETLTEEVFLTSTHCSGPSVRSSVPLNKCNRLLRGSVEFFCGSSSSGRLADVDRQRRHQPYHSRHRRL
#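 Detergent-free condition (0.00005% Triton X-100) in acetate buffer pH 5.5 with DTT. 1.5 nM enzyme and compound were pre-mixed 15 min, then 2 uM Z-FR-AMC substrate added; reaction progress from fluorescence change between first and third reads (60 s).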
# SARS PLP yeast: inhibitors of SARS-CoV papain-like protease in yeast; actives 0.19% (n = 330,000); AID 485353; Potency, µM (top dose mostly 32.9 µM), inactives show at the highest dose activity, positive = growth rescue; S. cerevisiae expressing SARS-CoV PLpro, growth rescue; control for the full effect not named in the record; note: 0% is about no effect; nearly all actives have a fitted effect of over 55% in size; growth read by luminescence after 48 h
# Cruzain inh Det: blocks cruzain activity in presence of Triton detergent | purified cruzain, Z-FR-AMC fluorescence, 0.01% Triton | actives 0.43% (n = 200,000) | Potency, µM, without a hit: max response, negative = inhibition, actives largely listed as inhibitors | P25779 | AID 1478; active = well fitted curve in the direction sought with a large enough effect; inconclusive = small, poorly fitted or top-dose-only effect, or another doubt; inactive = no such curve, though single readings can be large; an effect the other way counts as inactive or inconclusive;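 note: plate controls were neutral wells for no effect and buffer without enzyme for full effect; nearly all actives have a fitted effect of over 40% in size; top concentration of the series not given in the record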
#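 15 min RT preincubation of 1.5 nM cruzain with compound, then 2 uM Z-FR-AMC added; kinetic AMC fluorescence, 60 s delta. Triton X-100 0.01%, pH 5.5.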
# StopGo reporter: FMDV 2A StopGo reporter, luciferase signal | human cells with a luciferase reporter of 2A StopGo recoding; control for the full effect not named in the record | Potency, µM (highest dose often 57.9 µM), for the others: at the highest dose signal change, negative = less light | actives 1.2% (n = 410,000); active = well fitted falling curve with a large enough effect; inconclusive = small, poorly fitted or top-dose-only effect; inactive = no such curve, though single readings can be large or run the other way; tested in HEK293T cells; note: % is set by controls: 0 for no effect and ±100 for the full control effect; nearly all actives have a fitted effect of over 45% in size; luciferase light after 4 h
# NS1 function inh: inhibitors of influenza NS1 protein function; actives 0.4% (n = 270,000); S. cerevisiae slowed by influenza A NS1, growth recovery by OD600; Potency, µM (top dose mostly 46.1 µM), without a hit: at the highest dose activity, positive = more growth; note: actives are rising curves; nearly all actives have a fitted effect of over 50% in size
#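 Read-out: OD600 growth recovery of NS1-expressing budding yeast. Cells grown overnight at 30C in -URA glucose medium, washed, resuspended and diluted 1:100 in 2% galactose assay medium, pH 6.0. Same strain lacking NS1 served as positive control.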
# Starred values were filed as active, the others as inactive; ? = inconclusive; / = not tested or not shown; & = joins results of further samples; [ ] = dose if it differs, or a comment. Unless noted, calls come from the whole dose curve; as a rule, active means well fitted rising curve with a large enough effect; inconclusive means small, poorly fitted or top-dose-only effect; inactive means no such curve, though single readings can be large or run the other way. Potency is the fitted concentration of half-maximal effect.
SMILES,Marburg entry inh,LASV entry inh,RE007 growth inh,Cruzain inh noDet,SARS PLP yeast,Cruzain inh Det,StopGo reporter,NS1 function inh
COc1ccc(C(=O)C2CCCN(Cc3ccc(C)s3)C2)cc1OC (configuration not stated),/,/,-27%,/,0%,/,0%,1%
CCOC(=O)C1CCCN(C(=O)c2cccc(S(=O)(=O)N3CCOCC3)c2)C1 (configuration not stated),-11%[46.1 µM],0%[46.1 µM],25%,/,-1%,/,-13%,/
Cc1nc2ccccc2c(=O)n1Nc1cccc(Cl)c1,1%,?,51%,16%,26%,-6.4%,-13%,6%
COc1ccc(C(=O)NC(CCSC)C(=O)NCc2nnc3ccccn23)cc1 (configuration not stated),5%[46.1 µM],-4%,-19%,/,-1%,/,-1%,/
C/C(COc1ccccc1)=N\NC(=O)c1nnn(-c2nonc2N)c1CSc1ccccc1,/,/,5%,/,-3%,/,2%,16%
CC12CN3CCN(CC(C3)/C1=N/NC(=O)Nc1ccccc1)C2,?,0%,9%,8%,18%,-2.9%,38%[activator],5%
COc1ccc(C(=O)Cn2c(NCCO)nc3ccccc32)cc1,-15%,?,1%,/,0%,/,-17%,-6%
O=C(CCS(=O)(=O)c1cccc2nonc12)Nc1c(F)cccc1F,-8%[46.1 µM],8%[46.1 µM],/,-14%,/,-1.5%,3%,/
O=P(O)(O)Cc1c(Cl)cccc1Cl,8%,-10%[46.1 µM],-5%,-4%,17%,-1.4%,-13%,0%
COc1ccc(OCCNC(=O)CSc2ccc(C(F)(F)F)cc2[N+](=O)[O-])cc1,-5%,?,1%,-6%,-16%,-4.3%,-7%,2%
Cc1ccc(Cl)cc1N1CCN(C(=O)C2CCCN(Cc3nc(-c4cccc(Cl)c4)oc3C)C2)CC1 (configuration not stated),-18%[46.1 µM],-5%[46.1 µM],/,3%,/,-2.3%,?,/
Cc1c(CCOC(=O)c2cc([N+](=O)[O-])cc([N+](=O)[O-])c2)sc[n+]1CC(=O)c1ccc(Br)cc1,?,-9%,-16%,/,5%,/,-28%,/
COc1ccc(OCC(CO)N2CCN(c3ccccc3)CC2)cc1 (configuration not stated),4%[46.1 µM],3%[46.1 µM],1%,/,/,/,-8%,/
CC(=O)c1cccc(NC(=O)CSc2nnc(-c3cccnc3)o2)c1,-3%,7%,23%,-6%,-3%,0.0%,0%,4%
COC(=O)c1ccc(Oc2nc(N3CCCCC3)nc(N3CCOCC3)n2)cc1,?,?,3%,?,-2%,0.9%,/,-93%
COc1ccccc1NC(=O)CCS(=O)(=O)c1ccccc1,10%[46.1 µM],-3%[46.1 µM],4%,/,-2%,/,11%,-7%
O=C(CCN1C(=O)c2ccccc2C1=O)N1CCN(C(=O)c2ccccc2)CC1,-2%&-5%,3%,5%,-23%,9%,2.4%,-3%,2%
COc1ccc(S(=O)(=O)Nc2ccc(-c3ccc(N4CCCC4)nn3)cc2)cc1F,/,-20%[46.1 µM],/,6%,/,0.1%,31%[activator],/
COCCNC(=S)Nc1cc(OC)c(OC)cc1C#N,/,/,-5%,/,0%,/,-3%,9%
O=C(CCc1nnc(-c2ccc3c(c2)OCO3)o1)NCCc1ccccc1F,/,/,9%,/,-2%,/,2%,-1%
CC(Cc1ccccc1)C(=O)Nc1ccccc1 (configuration not stated),7%,20%,1%,-8%&-3%,4%,0.8%&2.3%,21%,-4%
O=C(Nc1nccs1)C(Br)C(Br)c1ccccc1 (configuration not stated),?,?,-26%,/,-7%,/,-36%,-3%
Cn1cc(C(c2ccccc2OCC(=O)O)c2cn(C)c3ccccc23)c2ccccc21,?,?,-19%,/,1%,/,?,?
CCn1c(SCC(=O)N(C(C)C)C(C)C)nnc1-c1cc2ccccc2cc1O,-5%,-17%,5%,10%,-2%,2.6%,-28%,-2%
Cc1cccc(C(=O)NC2CCN(C(=O)N3CCOCC3)CC2)c1,14%,-2%,6%,-10%,3%,6.4%,4%,5%
CC(C)CC1C(C#N)=C(N)Oc2n[nH]c(-c3ccccc3)c21 (configuration not stated),0%,2%,-7%,-10%,-1%,-9.6%,-14%,8%
CCN(CC)c1ccc(CN2CCC(C(=O)NCc3ccc(C)cc3)CC2)cc1,/,/,-13%,/,0%,/,-29%,6%
O=C(c1cccc2ccccc12)C1CCCN(C(=O)CCc2cnccn2)C1 (configuration not stated),8%[46.1 µM],-13%[46.1 µM],2%,/,-1%,/,-4%,-5%
O=C1C2CCCN2C(c2ccccc2F)N1c1ccc(F)cc1 (configuration not stated),-20%,21%,14%,-12%,4%,0.3%,-25%,0%
O=C(O)CSc1nnc(-c2ccc(Cl)cc2Cl)n1Cc1ccccc1,/,/,5%,/,-17%,/,-14%,12%
CCc1ccn2cc(-c3cc(-c4ccccc4)no3)nc2c1,/,/,-18%,/,-4%,/,3.2µM*,-45%
Cc1cc(Cl)ccc1N(CC(=O)NCCSCc1ccco1)S(C)(=O)=O,?,22%,14%,/,1%,/,-9%,0%
CCNc1nc(NCC)nc(SCCOC(=O)Nc2ccccc2)n1,-23%,-25%,-18%,-9%,-5%,-4.2%,?,-34%
C=CCN1C(=O)N(CC=C)c2cccc3cccc1c23,/,/,-12%,/,-1%,/,-28%,-5%
CCOC(=O)c1ccccc1NC(=O)c1cc2sccc2n1C,1%,1%,12%,-4%,-2%,-4.3%,-1%,-10%
Cc1ccc(-c2nn(-c3cccc(F)c3)cc2CNCc2cccnc2)o1,?,?,-17%,/,-1%,/,-3%,1%
O=C(O)CN1CCNCC1,0%,/,/,-3%,1%,5.9%,/,3%
Cn1c(SCC(=O)c2cc3ccccc3o2)nnc1-c1ccccc1,/,/,3%,-9%,-11%,-10.0%,17%,3%
Cc1ccc(N2CC(C(=O)Nc3ccccc3N3CCCC3)CC2=O)cc1 (configuration not stated),?,10%[46.1 µM],12%,/,-5%,/,6%,-2%
COc1ccc(CC(=O)NCC(=O)N/N=C(/C)c2ccco2)cc1,-1%,11%,-11%,/,1%,/,-15%,/
Cc1ccc(NC(=O)C2CCCN2S(=O)(=O)c2ccc3c(c2)n(C)c(=O)c(=O)n3C)cc1C (configuration not stated),?,-1%[46.1 µM],3%,2%&3%,10%,0.2%&-0.2%,21%&-12%,-11%
Cc1cnc(C(=O)OCC(=O)N(C(C)C)C(C)C)cn1,19%,5%,42%,-1%,-4%,6.1%,-14%,3%
COc1cccc(OCc2nc3ncc(Br)cc3[nH]2)c1,?,8%,-12%,-10%,-1%,-1.3%,42%[activator],-5%
CCOC(=O)c1c(C)c(-c2ccccc2)n(CC(=O)Nc2cccc(C)c2C)c1C,-2%[46.1 µM],/,/,-2%,/,-0.6%,8%,/
COc1ccc(-n2c(=S)[nH]c3cc(C(=O)NCc4ccco4)ccc3c2=O)cc1OC,-8%,1%,-1%&-7%,1%,4%&2%,1.4%,-10%&-3%,-11%
CCCCCCCn1c(NC(=O)CC)nc2ccccc21,?,-27%,?,/,1%,/,-29%,-93%
Cc1ccc(S(=O)(=O)NCC(c2ccccc2)N2CCCCC2)cc1 (configuration not stated),?,-3%,-14%,/,-1%,/,-5%,2%
O=C(O)c1ccc(Nc2nc(-c3ccccc3)c3ccccc3n2)cc1,20%[46.1 µM],8%,-7%,/,-1%,/,-1%,/
COc1cccc(CNC(=O)Cn2ccc3cc(S(=O)(=O)N4CCCCCC4)ccc32)c1OC,/,/,2%,/,-5%,/,-13%,10%
CCOc1ccc(CCNC(=O)COC(=O)c2ccccc2O)cc1OCC,7%[46.1 µM],-14%[46.1 µM],13%,/,-3%,/,8%,/

# As a short view, four of the compounds above.
SMILES,Marburg entry inh,LASV entry inh,RE007 growth inh,Cruzain inh noDet,SARS PLP yeast,Cruzain inh Det,StopGo reporter,NS1 function inh
COc1ccc(C(=O)C2CCCN(Cc3ccc(C)s3)C2)cc1OC (configuration not stated),/,/,-27%,/,0%,/,0%,1%
CCOC(=O)C1CCCN(C(=O)c2cccc(S(=O)(=O)N3CCOCC3)c2)C1 (configuration not stated),-11%[46.1 µM],0%[46.1 µM],25%,/,-1%,/,-13%,/
Cc1nc2ccccc2c(=O)n1Nc1cccc(Cl)c1,1%,?,51%,16%,26%,-6.4%,-13%,6%
COc1ccc(C(=O)NC(CCSC)C(=O)NCc2nnc3ccccn23)cc1 (configuration not stated),5%[46.1 µM],-4%,-19%,/,-1%,/,-1%,/

# (cont.)
SMILES,Marburg entry inh,LASV entry inh,RE007 growth inh,Cruzain inh noDet,SARS PLP yeast,Cruzain inh Det,StopGo reporter,NS1 function inh
O=C(NCCCO)C(=O)Nc1c2c(nn1-c1ccc(F)cc1)CSC2,/,1%[46.1 µM],/,?,/,-6.2%,-3%,/
CSc1ncc(Cl)c(C(=O)C(C#N)c2nc3c(C)cc(C)cc3c(=O)[nH]2)n1 (configuration not stated),?,8%,-1%,?,-87%,-28%,/,-84%
CNC(=O)COC(=O)c1cc(=O)[nH]c2ccccc12,13%,1%,20%,4%,0%,-3.6%,21%,-4%
COc1ccc(C)cc1NC(=O)C(Sc1nnc(Nc2cc(C)ccc2OC)s1)c1ccccc1 (configuration not stated),?,-1%,-9%,?,17%,-8.2%,6%,?
COc1ccc(C(=O)O)cc1OC,/,/,6%,-1%,/,7.4%,-10%&-10%,/
Cc1ccc(CNC(=O)CN(c2ccc(Cl)cc2)S(C)(=O)=O)cc1,/,/,-13%,/,0%,/,43%[activator],8%
O=C(CCc1ccccc1)Nc1ccc(S(=O)(=O)Nc2nccs2)cc1,12%[46.1 µM],-4%,-24%,/,-3%,/,70%[activator],17%
Cc1ccc(S(=O)(=O)Nc2ccc(O)c(S(=O)(=O)c3ccc(C)cc3)c2)cc1,5%,-1%,-9%,/,1%,/,58%[activator],9%
CCn1cc(C(=O)Nc2ccc(C)cc2[N+](=O)[O-])c(C)n1,4%[46.1 µM],6%[46.1 µM],6%,/,/,/,9%,/
